Rce1 inh: yeast Ras-converting enzyme inhibition. Q03530. yeast membranes, quenched prenylated peptide cleavage fluorescence. calls only. actives 0.27% (n = 290,000). AID 2563;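 active = fall in fluorescence gain of 50% or more versus controls, with final raw signal at or below 3038400; inconclusive = same 50% fall but final raw signal above 3038400; inactive = fall in fluorescence gain under 50%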;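 note: plate controls were neutral control wells for no effect and wells lacking membranes for full effect; tested at 10 µM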
MT1-MMP act inh: MT1-MMP (human) activation inhibition; GFP/RFP ratio change, % at 20 µM; P50281; HT1080 RFP-PRO-GFP cells, GFP/RFP ratio fluorescence, overnight; percent of plate control window, DMSO zero; actives 0.061% (n = 360,000);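 active = GFP/RFP ratio change of at least 30% with cell ATP level not reduced by more than half and red fluorescence within 50% of control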; note: strong numbers were not always called active
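Test system: HT1080 cells expressing an RFP-PRO-GFP fluorescent reporter construct / Compound dosing: single-point 20 µM compound, 1% DMSO / Schedule: cells overnight before dosing, compound overnight, 37 °C, 5% CO2 / Evaluation: GFP/RFP fluorescence ratio / Control set: DMSO and RFP-L50D-GFP cell wells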
PABP FP inh: PABP-poly(A) binding inhibition. actives 1% (n = 290,000). AID 2014. PABP-poly(A) RNA binding, fluorescence polarization. P11940. inhibition, % at 35 µM;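 active = 50% or more with normal probe brightness, or confirmed in later tests; inconclusive = above 50% with abnormal brightness, or retests that disagree; inactive = below 50% or failed in later tests; about a fifth of its hits are not listed in these tables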;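 note: calls also rest on retests at 20 µM and on dose response follow-up; controls were probe without protein and protein plus probe with vehicle; some compounds called inactive have numbers as strong as hits; many hits fall short of the cut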
Target sequence (P11940 whole entry, looked up): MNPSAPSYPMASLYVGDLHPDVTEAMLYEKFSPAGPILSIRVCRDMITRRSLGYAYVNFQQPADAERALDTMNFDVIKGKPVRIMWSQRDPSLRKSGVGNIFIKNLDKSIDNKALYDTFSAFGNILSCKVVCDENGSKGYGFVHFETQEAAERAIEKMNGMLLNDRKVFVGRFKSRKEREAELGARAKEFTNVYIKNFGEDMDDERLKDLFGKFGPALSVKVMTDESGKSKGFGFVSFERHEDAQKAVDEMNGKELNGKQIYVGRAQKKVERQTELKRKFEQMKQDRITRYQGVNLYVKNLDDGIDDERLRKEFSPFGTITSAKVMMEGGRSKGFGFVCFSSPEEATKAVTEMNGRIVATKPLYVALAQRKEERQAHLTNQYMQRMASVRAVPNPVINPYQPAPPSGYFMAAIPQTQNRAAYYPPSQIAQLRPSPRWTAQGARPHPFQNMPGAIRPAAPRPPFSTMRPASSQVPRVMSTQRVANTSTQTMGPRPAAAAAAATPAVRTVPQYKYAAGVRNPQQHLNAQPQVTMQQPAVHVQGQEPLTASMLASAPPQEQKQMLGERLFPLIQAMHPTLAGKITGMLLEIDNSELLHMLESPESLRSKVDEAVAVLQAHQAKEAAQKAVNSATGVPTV
Env fusion inh: HIV envelope-mediated fusion inhibition; HeLa-JRFL Env/CEM21 cell fusion, luciferase; inhibition, % at 12.3 µM; actives 1.1% (n = 360,000); AID 651610;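 active = mean replicate inhibition score of at least 50 and every replicate individually at or above 50; inconclusive = only one of the two criteria met; inactive = mean below 50 and not all replicates reaching 50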;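 note: 0% = plate neutral controls and 100% = maraviroc near 300 nM; one replicate is shown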
eIF4H inh: inhibitors of RNA binding by human eIF4H. Q15056. eIF4H fluorescence polarization binding assay. inhibition, % at 35 µM. actives 0.94% (n = 290,000). AID 2012;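 active = 50% or more with normal probe brightness, or confirmed in later tests; inconclusive = above 50% with abnormal brightness, or retests that disagree; inactive = below 50% or failed in later tests; about a fifth of its hits are not listed in these tables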;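 note: calls also rest on retests at 20 µM and on dose response follow-up; 0% = protein and probe with vehicle and 100% = probe without protein; strong numbers were not always called active; many hits fall short of the cut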
Yeast UUG start: yeast start codon fidelity modulation; actives 0.13% (n = 350,000); S. cerevisiae UUG-firefly luciferase reporter, luminescence/redox ratio; activity score, % at 18.7 µM;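 active = replicate mean at a twofold rise or more, about +100% in these data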;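 note: firefly luciferase made from a UUG start codon reports start codon fidelity; reporter light over untreated wells divided by growth signal over untreated wells; some hits fall short of that in this replicate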
CSC inhib: blocks cancer stem cells; actives 1.1% (n = 300,000); cancer stem cell-like cells viability, luminescence; AID 2717; inhibition, % at 7.5 µM;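 active = mean at 75% or more and at least half the replicates too; inconclusive = mean and replicates disagree; tested in HMLE shEcad cells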;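 note: 0% = median of negative and 100% = median of positive control wells; the first replicate is given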
eIF4H inh retest: second read-out of eIF4H inh, no call of its own (marks repeat the call); inhibition, %; compound at 20 µM; confirmation average;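 mean of two retest wells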
PABP FP inh retest: second read-out of PABP FP inh, no call of its own (marks repeat the call); inhibition, %; compound at 20 µM; confirmation repeats;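 mean of two retest wells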
MT1-MMP act inh RFP: recorded beside MT1-MMP act inh, whose call it bears; RFP signal change, %; measured here: RFP expression control read;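 0 = vehicle wells; hits needed this value within 50% of zero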
The depositor's hits bear a star; i = inactive; ? = inconclusive; . = no result given.

SMILES | Rce1 inh | MT1-MMP act inh | MT1-MMP act inh RFP | PABP FP inh | Env fusion inh | eIF4H inh | Yeast UUG start | CSC inhib | others
CC(=O)C1C(=O)c2c(cccc2[N+](=O)[O-])C1=Nc1ccccc1C (stereo not drawn) | i | . | . | -8 | -18 | 2 | . | -2
CCN1CCN(CCNC(=O)c2cn(C(C)c3ccccc3F)nn2)CC1 (stereo not drawn) | i | -2 | 1 | 1 | -158 | -2 | -11 | -5
COc1ccccc1CNC(=S)Nc1ccc(F)cc1 | i | -2 | 2 | -7 | 12 | -2 | -16 | -20
O=C(NCc1ccc2[nH]c3c(c2c1)CCCC3)c1ccc(S(=O)(=O)N2CCOCC2)cc1 | i | -1 | -1 | 7 | 11 | 22 | -4 | 0
c1ccc(Sc2ncnc3c2oc2ccccc23)cc1 | i | -6 | -3 | -7 | . | -15 | -12 | -10
CC(C)(C)OC(=O)N1CCC(c2c(C(=O)O)cnn2-c2ccccc2)CC1 | i | 2 | 3 | -13 | . | 2 | -3 | .
COc1ccc(CCNC(=O)c2cccc(NC(=O)CC3SC(N4CCCCC4)=NC3=O)c2)cc1OC (stereo not drawn) | i | 1 | 4 | -2 | -10 | -10 | 13 | -2
CCO[C@@H]1OC(C(=O)O)=C[C@H](c2cn(C(C)=O)c3ccccc23)[C@H]1CCCO | i | 4 | 4 | . | 15 | . | -9 | -8
COc1ccccc1-n1c(CNC(=O)c2ccc(S(=O)(=O)N3CCCCC3)cc2)n[nH]c1=S | i | 2 | 1 | -1 | 15 | 2 | -14 | -9
COc1ccc(OCCN2CCOCC2)cc1 | i | -1 | 3 | 1 | 8 | -5 | -10 | -9
Cc1cc([N+](=O)[O-])cc([N+](=O)[O-])c1NCC(C)C | i | 6 | 2 | -6 | -5 | -7 | -9 | -30
C/C(CCC(C)C)=N\NC(=S)NCc1ccccc1 | i | 1 | 3 | -2 | 6 | -2 | . | -14
Cc1nnc(C)n1N1C(=O)c2cccc3cccc(c23)C1=O | i | -1 | 1 | 3 | . | -3 | -9 | -9
Cc1ccc(S(=O)(=O)Nc2cc3c(cc2C#N)OCO3)cc1C(N)=O | i | 1 | 1 | -1 | 8 | 1 | -17 | .
O=C1Nc2c(c(=O)[nH]c(=O)n2-c2ccc(F)cc2)C1(NS(=O)(=O)c1ccccc1)C(F)(F)F (stereo not drawn) | i | 2 | 1 | 12 | -45 | -3 | -1 | 7
Cn1ncc(C(=O)N=S(C)(=O)c2ccccc2)c1[N+](=O)[O-] (stereo not drawn) | i | -2 | 1 | 3 | 9 | -10 | . | -11
O=C(NCCCN1CCOCC1)c1ccc(CNS(=O)(=O)c2ccc(F)cc2)cc1 | i | 2 | 4 | -6 | -292 | -2 | . | 9
O=C(c1ccco1)N1CCCC(c2ccccc2)C1 (stereo not drawn) | i | 2 | 0 | 2 | -69 | -5 | 2 | -3
COc1ccccc1CNC(=O)C1CC(=O)N(c2ccc(C)c(C)c2)C1 (stereo not drawn) | i | -3 | -1 | -6 | -3 | -9 | -5 | 6
CC(C)(C)NC(=O)COC(=O)c1ccccc1Nc1ccc(SC(F)F)cc1 | i | 0 | -6 | 7 | 13 | 0 | -4 | 4
CN(Cc1ccccc1)C(=O)c1cccc(NC(=O)Cc2ccc(NC(=O)C3CCCN(C(=O)c4ccccc4)C3)cc2)c1 (stereo not drawn) | . | -4 | -7 | . | -1 | . | -6 | .
O=C(COC(=O)c1ccc(Cl)cc1[N+](=O)[O-])NNC(=O)c1cccs1 | i | 7 | -4 | . | 4 | . | 1 | -7
C/C(=N\NC(=S)NCC(C)(C)C)c1cc(F)cc(F)c1O | i | 9 | -7 | 7 | 3 | 0 | -29 | 34
COc1cc(/C=C2\SC(=O)N(CC(=O)Nc3ccccc3F)C2=O)cc(Cl)c1O | i | -177 | -14 | 3 | 24 | 1 | -20 | 25

Next section (three carried over from the part before).
SMILES | Rce1 inh | MT1-MMP act inh | MT1-MMP act inh RFP | PABP FP inh | Env fusion inh | eIF4H inh | Yeast UUG start | CSC inhib | others
O=C(COC(=O)c1ccc(Cl)cc1[N+](=O)[O-])NNC(=O)c1cccs1 | i | 7 | -4 | . | 4 | . | 1 | -7
C/C(=N\NC(=S)NCC(C)(C)C)c1cc(F)cc(F)c1O | i | 9 | -7 | 7 | 3 | 0 | -29 | 34
COc1cc(/C=C2\SC(=O)N(CC(=O)Nc3ccccc3F)C2=O)cc(Cl)c1O | i | -177 | -14 | 3 | 24 | 1 | -20 | 25
O=C(/C=C/c1ccccc1)NC(=S)Nc1ccccc1C(=O)NC1CCCCC1 | i | -4 | -5 | -9 | . | 0 | -8 | -1
Clc1cccc(CNc2ccn3nc(-c4cccs4)cc3n2)c1 | . | 4 | 1 | . | -56 | . | -26 | .
Cc1ccc(CSc2nnc(-c3ccco3)n2N)cc1 | i | 3 | -5 | 7 | -38 | 6 | -14 | -6
CNC(=O)c1c(NC(=O)c2cccc(N3C(=O)CCC3=O)c2)sc2c1CCC2 | i | -5 | 1 | 10 | -13 | 11 | -1 | -8
CC(C)(C)n1nc2c(c1NC(=O)c1ccc(F)c(F)c1)CS(=O)(=O)C2 | i | 0 | 2 | 11 | -6 | -1 | 0 | -4
CC1=C(C(=O)OC(C)C)C(c2ccc(Br)s2)NC(=O)N1C (stereo not drawn) | i | -2 | -6 | -5 | . | -7 | 4 | 2
CCN(CC(=O)Nc1ccccc1C(F)(F)F)C(=O)Cc1ccccc1 | i | 0 | 3 | 7 | 3 | -6 | 4 | -4
COC(=O)c1ccc(OC)c(CSc2nnc(-c3ccc(C(C)(C)C)cc3)o2)c1 | i | . | . | -1 | 10 | -5 | . | 48
C=C(C)COc1ccc(-c2[nH]ncc2Oc2cccc(OC)c2)c(O)c1 | i | -1 | -2 | 1 | . | 2 | -13 | -9
N#Cc1ccc(COC(=O)CC(NC(N)=O)c2ccc(Cl)cc2)cc1 (stereo not drawn) | i | 5 | 2 | 10 | -4 | 0 | -4 | -15
C#CCn1cc(CNC[C@H]2O[C@@H](n3cnc4c(=O)[nH]c(N)nc43)[C@H](O)[C@@H]2O)c2ccccc21 | . | 0 | 2 | . | -29 | . | -17 | .
COCCNC(=O)/C(C#N)=C/c1c(N2CCN(C)CC2)nc2c(C)cccn2c1=O | i | -4 | 0 | 7 | 15 | 3 | 3 | -9
O=S(=O)(/N=C(/Nc1cccc2ccccc12)c1ccc(F)cc1)c1ccccc1 | i | -1 | 0 | 2 | 7 | -17 | -6 | -10
CN1CCc2c(sc(NC(=O)c3ccc4ccccc4c3)c2C(N)=O)C1 | i | -14 | -2 | 12 | . | ? | -8 | 48 | PABP FP inh retest=12
O=c1c2cc(C(F)(F)F)ccc2sn1-c1ccccc1 | . | 2 | -31 | . | 37 | . | -18 | .
CN(Cc1ccccc1)C(=O)COc1ccc(N(C)S(=O)(=O)c2ccc(F)cc2)cc1 | i | 2 | 0 | 8 | 1 | -7 | . | 2
CCCc1cc(=O)oc2cc(C)cc(OCC(=O)Nc3cccnc3)c12 | i | -2 | -4 | -6 | 6 | -2 | -21 | -5
CCOC(=O)/C=C/COc1ccccc1[N+](=O)[O-] | i | -4 | 1 | -9 | -13 | -6 | . | -8
O=C(NCC1CCCO1)c1onc(CSc2ccc(F)c(F)c2)c1C(=O)O (stereo not drawn) | i | -3 | 5 | 3 | 2 | 53 | -13 | 7 | eIF4H inh retest=4;PABP FP inh retest=2
Cc1cc2ncn(-c3ncnc4sc(C)c(C)c34)c2cc1C | i | 1 | 1 | -4 | . | -5 | . | -29
O=C(Nc1ccc(NC(=O)C2CC2)nc1)c1cnccn1 | i | 1 | 3 | 12 | -7 | 6 | . | 1
Cc1cccc(OCC(O)CN2CCOCC2)c1 (stereo not drawn) | i | 0 | 2 | 11 | 11 | -2 | -3 | -9
O=C(C1CC1)N1CCc2cc(S(=O)(=O)N3CCOCC3)ccc21 | i | 1 | -1 | 16 | . | -7 | -11 | 0
C#CCN1C=CC(=O)[C@@H](OC(=O)Nc2ccc(Cl)cc2)[C@H]1c1ccccc1Br | . | 4 | 1 | . | 15 | . | -8 | .
C=CCOc1ccccc1OCC(O)CNC(C)C (stereo not drawn) | . | 7 | 14 | . | -10 | . | -20 | -11
C=CCN1C(=O)c2ccc(C(=O)N(C)CC(=O)Nc3ccc(OCC)c(OCC)c3)cc2C1=O | i | -1 | 6 | . | -23 | . | . | -8
Cc1ccsc1C(=O)NCc1ccc(F)cc1 | i | 1 | 3 | -3 | 5 | -20 | -20 | -3
COc1ccc(OC)c(S(=O)(=O)N2CCC(C(=O)Nc3cc(C)ccc3C)CC2)c1 | i | 3 | -10 | 8 | 16 | -5 | -12 | 7
Cc1ccc(S(=O)(=O)N2CCOCC2)cc1NC(=O)COC(=O)CCOc1ccc(C(C)(C)C)cc1 | i | -2 | -1 | . | 2 | . | -6 | 6
COc1ccc(N2C(=O)/C(=C/c3ccc([N+](=O)[O-])cc3)N=C2C)c(OC)c1 | i | -4 | -19 | 24 | 13 | -4 | . | -3
C(=N\n1cnc2ccccc21)/c1cccnc1 | i | 0 | 4 | -1 | -30 | 8 | -2 | -4
O=[N+]([O-])c1ccc(Cl)c(S(=O)(=O)N2CCCCCC2)c1 | i | 1 | 2 | -1 | . | 0 | . | 52
COc1ccc([C@H]2CC(=O)C=C(c3cccc(OC)c3)C2)cc1 | . | 0 | 3 | . | -40 | . | -15 | -8
CC(=O)Nc1sc2c(c1C(c1ccc(F)cc1)N1CCOCC1)CCCC2 (stereo not drawn) | i | -4 | -7 | -6 | 90* | -22 | -11 | -4
Cc1ccc2c(c1)nnn2C1CCN(S(=O)(=O)c2ccc(C(=O)N3C(C)CCCC3C)cc2)CC1 (stereo not drawn) | i | 4 | -19 | -1 | 67* | 0 | 21 | 41
Cc1nc2sccn2c1P(c1c(C)nc2sccn12)c1c(C)nc2sccn12 | i | 4 | 0 | 7 | . | 1 | -17 | .
COc1ccc(OCCNC(=O)CCCO)cc1 | i | 3 | 4 | 6 | 2 | -4 | . | -2
COc1ccc(S(=O)(=O)N2CCN(CC(=O)Nc3ccc(C)c(F)c3)CC2)cc1 | i | 3 | 0 | 4 | . | -6 | . | .
O=C(COC(=O)c1ccc(S(=O)(=O)N2CCOCC2)cc1)NC1CCCCCCC1 | i | 1 | 3 | -12 | -3 | -4 | 16 | -17
CN(CCO)C(=O)C1CCN(c2ncc(C(F)(F)F)cc2Cl)CC1 | i | -1 | -6 | -4 | -2 | 1 | . | -11
Cc1ccc(Cl)cc1NC(=S)NCCCSC1CCCCC1 | i | 2 | -10 | -13 | -15 | -8 | -27 | 25
O=C(NCc1ccccc1)c1noc2c1CCCC2 | i | -11 | -9 | -16 | -22 | -9 | -23 | -1
Cc1c(C)n(C)c2ccc(C(=O)NCCCN3CCN(c4ccc(F)cc4)CC3)cc12 | i | 0 | 1 | -1 | 6 | -11 | -21 | 0
Cc1ccc(NC(=O)CCS(=O)(=O)c2cc3c(cc2Cl)NC(=O)CO3)cc1 | i | 0 | -1 | 7 | 11 | 3 | -6 | -5
CC(=O)c1ccc(NC(=S)NC(=O)c2c(Cl)c(C)nn2C)cc1 | i | 8 | 4 | 0 | . | 3 | -13 | 6

Assay outcomes from PubChem BioAssay.
